Ecoli rRNA inh – inhibitors of bacterial rRNA selective over humanized ribosomes. E. coli WT GFP vs humanized-ribosome RFP mutants, fluorescence, 24 h; hits give low values; DMSO median 0, no signal -100. GFP signal change (wild-type ribosome), % (test concentration not listed). actives 1.6% (n = 350,000);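 active = significant combined selectivity score with lowered wild-type GFP, culture density cut under 30%, mutant RFP and density less affected; inactive = any of these conditions unmet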; also: one replicate is shown; some compounds called inactive have numbers as strong as hits
FGF22 binding – shifts melting point of recombinant human FGF22 | Q9HCT0 | recombinant FGF22 thermal shift, SYPRO orange fluorescence; percent of sucrose octasulfate shift, DMSO zero | calls only at 9.99 µM | actives 1.5% (n = 340,000);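 active = melting point raised past a set limit in the mean and every replicate; three in four hits are not shown here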
Target sequence (Q9HCT0 whole entry, looked up): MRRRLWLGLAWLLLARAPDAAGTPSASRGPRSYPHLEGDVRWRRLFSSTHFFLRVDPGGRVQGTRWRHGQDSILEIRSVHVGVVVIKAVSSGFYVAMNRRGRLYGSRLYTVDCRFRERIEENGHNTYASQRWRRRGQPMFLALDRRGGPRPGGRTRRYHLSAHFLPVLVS
AF4-AF9 inh – MLL-AF4/AF9 protein interaction inhibition; AlphaScreen, biotin-AF4 peptide binding to FLAG-AF9; P42568; inhibition, % at 10 µM; actives 0.47% (n = 350,000);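 active = every replicate reaching a set inhibition limit, whatever the replicate mean, cut at about 25% in these data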;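 also: 0% = plate neutral control median and 100% = total signal loss; the record names both 10 and 1 µM as test concentration; the first replicate is given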
Target sequence (P42568 whole entry, looked up): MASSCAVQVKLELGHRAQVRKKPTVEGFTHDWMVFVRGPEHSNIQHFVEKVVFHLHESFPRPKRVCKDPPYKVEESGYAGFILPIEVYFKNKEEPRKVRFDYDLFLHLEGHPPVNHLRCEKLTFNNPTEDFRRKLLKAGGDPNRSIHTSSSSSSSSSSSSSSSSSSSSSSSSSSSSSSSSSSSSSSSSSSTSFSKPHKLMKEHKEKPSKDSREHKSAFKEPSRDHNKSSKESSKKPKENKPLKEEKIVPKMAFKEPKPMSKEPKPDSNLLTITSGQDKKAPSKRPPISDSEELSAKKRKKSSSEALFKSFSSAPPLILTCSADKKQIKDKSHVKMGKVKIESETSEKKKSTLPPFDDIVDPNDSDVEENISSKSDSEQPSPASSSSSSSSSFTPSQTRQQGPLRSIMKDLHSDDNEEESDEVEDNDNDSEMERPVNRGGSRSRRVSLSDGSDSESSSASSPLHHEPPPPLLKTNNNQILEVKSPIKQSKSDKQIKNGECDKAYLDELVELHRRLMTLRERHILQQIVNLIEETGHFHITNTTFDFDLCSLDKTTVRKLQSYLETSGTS
Ecoli rRNA inh OD600 – recorded beside Ecoli rRNA inh, whose call it bears; OD600 change, %; measured here: OD600 growth;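 optical density of the mix in the first replicate; 0 = DMSO median and -100 = no signal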
Ecoli rRNA inh RFP – second read-out of Ecoli rRNA inh, no call of its own (marks repeat the call); RFP signal change, %; measured here: RFP humanized mutant strains;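 first replicate; 0 = DMSO median and -100 = no signal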
* hit, by the source's call; i = inactive; & = joins results of further samples. A portion of the library; count on the stated rates, not on these rows.

Ecoli rRNA inh,Ecoli rRNA inh OD600,Ecoli rRNA inh RFP,FGF22 binding,AF4-AF9 inh,mol
2.6,-1.5,0.8,i,-2.1,CO[C@@H]1CN(C)C(=O)c2ccc(NS(=O)(=O)c3ccc(F)cc3)cc2OC[C@@H](C)NC[C@@H]1C
-6.4,0.4,-1.6,i,1.2,CC(C)NC(=O)Nc1ccc2c(c1)C(=O)N([C@H](C)CO)C[C@H](C)[C@@H](CN(C)S(=O)(=O)c1ccccc1)OCCCC[C@H](C)O2
-2.8,3.6,-2.2,i,-2.7,COCC(=O)N1[C@@H](CO)[C@@H](c2ccccc2)C12CN(C(=O)NC1CCCCC1)C2
-3.1&-0.1,4.0&5.2,1.5&-1.4,i,-1.8&0.4&0.1,C[C@@H]1CN([C@H](C)CO)C(=O)CCCn2nncc2CO[C@H]1CN(C)S(=O)(=O)c1ccccc1
2.0,5.0,0.7,i,1.3,COc1cc2ccc(CC(N)=O)cc2cc1OC
-1.8,-5.0,-1.5,i,-2.2,CC(C)C#Cc1ccc2c(c1)O[C@H](CN(C)C(=O)c1cnccn1)[C@@H](C)CN([C@@H](C)CO)S2(=O)=O
8.4,5.5,-1.4,i,-3.6,CN1CCN(c2ccc(CNC(=O)C3(C)Cc4c(-c5ccc(C(N)=O)cc5)ccnc4O3)cc2)CC1 (centres undefined)
-2.3,-5.1,-2.9,i,3.5,Cc1ccc(-c2ccc3c(c2)O[C@@H](CN(C)Cc2ccccc2)[C@H](C)CN([C@@H](C)CO)S3(=O)=O)cc1
-5.2,-8.6,2.6,i,2.3,C[C@H]1CN([C@@H](C)CO)C(=O)c2cc(NC(=O)Cc3ccccc3)ccc2O[C@@H]1CN(C)Cc1ccc(C(F)(F)F)cc1
0.6,-7.2,-0.3,i,-0.8,O=C(NCCc1ccncc1)[C@@H]1[C@@H](CO)[C@@H]2Cn3c(ccc(-c4ccccc4)c3=O)[C@H]1N2
0.3,-4.1,-3.8,i,-1.6,COc1ccccc1CNC(=O)C[C@@H]1C[C@H]2c3cc(NC(=O)CN(C)C)ccc3O[C@H]2[C@@H](CO)O1
-0.7,-4.6,-1.4,i,2.2,C[C@H](CO)N1C[C@H](C)[C@@H](CN(C)Cc2ccncc2)Oc2ccc(NC(=O)Cc3ccccc3)cc2C1=O

Shown as tab-separated lines: part of the list above.
SMILES	Ecoli rRNA inh	Ecoli rRNA inh OD600	Ecoli rRNA inh RFP	FGF22 binding	AF4-AF9 inh
C[C@H]1CN([C@@H](C)CO)C(=O)c2cc(NC(=O)Cc3ccccc3)ccc2O[C@@H]1CN(C)Cc1ccc(C(F)(F)F)cc1	-5.2	-8.6	2.6	i	2.3
O=C(NCCc1ccncc1)[C@@H]1[C@@H](CO)[C@@H]2Cn3c(ccc(-c4ccccc4)c3=O)[C@H]1N2	0.6	-7.2	-0.3	i	-0.8
COc1ccccc1CNC(=O)C[C@@H]1C[C@H]2c3cc(NC(=O)CN(C)C)ccc3O[C@H]2[C@@H](CO)O1	0.3	-4.1	-3.8	i	-1.6
C[C@H](CO)N1C[C@H](C)[C@@H](CN(C)Cc2ccncc2)Oc2ccc(NC(=O)Cc3ccccc3)cc2C1=O	-0.7	-4.6	-1.4	i	2.2

New compounds follow
Ecoli rRNA inh,Ecoli rRNA inh OD600,Ecoli rRNA inh RFP,FGF22 binding,AF4-AF9 inh,mol
1.9,8.0,1.3,i,-1.8,COCC(=O)Nc1ccc2c(c1)[C@H]1C[C@H](CC(=O)N3CCc4ccccc4C3)O[C@@H](CO)[C@H]1O2
-4.2,-8.7,1.4,i,-0.2,COc1ccc(NC(=O)Nc2cccc3c2O[C@@H](CN(C)S(=O)(=O)c2ccc(Cl)cc2)[C@H](C)CN([C@H](C)CO)C3=O)cc1
2.3,-3.2,0.9,i,0.0,COc1ccc(S(=O)(=O)N(C)C[C@H]2Oc3c(NS(=O)(=O)c4cn(C)cn4)cccc3C(=O)N([C@@H](C)CO)C[C@@H]2C)cc1
2.1,0.9,-2.1,i,1.4,CCC(=O)N1C[C@@H](C)[C@@H](OC)CN(C)C(=O)c2cc(NC(=O)c3cnccn3)ccc2OC[C@@H]1C
-0.4,6.0,-1.9,i,-3.3,CCC(=O)N[C@@H]1CC[C@@H](CC(=O)NCc2ccccc2F)O[C@@H]1CO
3.7,3.2,1.8,i,-0.2,Cc1ccc(S(=O)(=O)Nc2ccc3c(c2)C(=O)N([C@@H](C)CO)C[C@H](C)[C@@H](CN(C)C)OCCCC[C@@H](C)O3)cc1
1.1,5.5,-2.0,i,-4.2,CC(C)NC(=O)N(C)C[C@@H]1Oc2ncc(-c3cccc(C#N)c3)cc2C(=O)N([C@@H](C)CO)C[C@H]1C
5.0,22.0,-2.7,i,0.4,CC(C)NC(=O)c1ccc2sc([C@@H]3O[C@H](CO)[C@H](O)[C@H](O)[C@H]3O)nc2c1
-3.2,-2.6,1.9,i,6.8,COc1ccc(NC(=O)N2C[C@@H]3[C@H](c4ccccc42)[C@@H](CO)N3Cc2ccccn2)cc1
1.2,3.2,-4.5,i,-0.9,C/C=C/c1cnc2c(c1)C(=O)N([C@@H](C)CO)C[C@@H](C)[C@@H](CN(C)C(=O)NC1CCCC1)O2
-4.2,-21.3,4.7,i,-0.5,CCC(=O)N1CC[C@H]2[C@@H]1c1cc(-c3ccccc3F)ccc1N(C)[C@H]2CO
6.8,-0.6,0.5,i,1.4,COC(=O)[C@]12CCCCC=C1N(Cc1ccco1)C(=O)[C@H](CC(=O)N1CCN(C(=O)C3CC3)CC1)C2
1.9,7.9,0.4,i,-2.2,COC(=O)C[C@H]1CC[C@H]2[C@@H](COc3ccc(NC(=O)c4cnccn4)cc3C(=O)N2C)O1
2.8,15.3,0.4,i,0.6,CS(=O)(=O)N1C[C@H](O)COC[C@H]2O[C@@H](CC(=O)NC3Cc4ccccc4C3)CC[C@@H]21
-12.8,-19.1,0.8,i,-3.3,Cc1ccc2nc(-c3cccc(Cl)c3)c(Cc3cccc(F)c3)n2c1
-3.7,-2.1,-0.6,i,-0.3,C[C@@H]1CN([C@H](C)CO)C(=O)Cc2cc(NC(=O)c3ccncc3)ccc2O[C@H]1CN(C)S(=O)(=O)c1ccc(F)cc1
2.1,5.9,-2.8,i,-2.1,CC(=O)N1[C@H](CO)[C@@H](c2ccccc2)[C@H]1CN(CC1CCC1)C(=O)CN(C)C
-12.5,-48.5,29.6,i,2.9,C[C@@H]1CN([C@@H](C)CO)C(=O)c2cc(NC(=O)Nc3ccc(C(F)(F)F)cc3)ccc2O[C@@H](C)CCCCO[C@@H]1CN(C)C
4.6,10.8,3.9,i,-1.4,Cc1noc(C)c1NC(=O)Nc1ccc2c(c1)C(=O)N([C@@H](C)CO)C[C@H](C)[C@H](CN(C)C(=O)NC1CCCCC1)O2
4.9,15.2,1.0,i,-0.2,CCc1nc(NCc2cccs2)c2nnn(Cc3ccccc3)c2n1
-2.8,0.2,-0.8,i,9.2,Cc1ccc(S(=O)(=O)N(C)C[C@H]2OCCCC[C@@H](C)Oc3ccc(N(C)C)cc3C(=O)N([C@@H](C)CO)C[C@@H]2C)cc1
-39.1,-55.6,18.2,i,9.2,C[C@H](CO)N1C[C@H](C)[C@H](CN(C)Cc2ccncc2)Oc2ncc(C#CCC3CCCCC3)cc2C1=O
-3.9,-6.4,5.2,i,-1.8,O=C(Nc1ccccc1)c1cc(C2CCCN(C(=O)c3cccs3)C2)on1 (centres undefined)
-0.2,-13.1,-5.8,i,0.1,COc1ccc(-c2ccccc2[C@H]2[C@@H](C#N)N(C(=O)C3CCCCC3)[C@H]2CO)cc1
2.5,5.7,-1.1,i,0.2,C[C@@H](NC(=O)C[C@@H]1CC[C@@H](NC(=O)C2CCC2)[C@@H](CO)O1)c1ccccc1
-0.7,2.9,1.8,i,-2.3,CC=Cc1ccc2n(c1=O)C[C@H]1[C@H](CO)[C@@H](C(=O)N3CCOCC3)N(Cc3ccccc3)[C@@H]21 (mixture of isomers)
-0.9,5.2,-1.3,i,0.4,CCC(=O)N1CC2(CCN(C(=O)c3cccnc3)CC2)c2c([nH]c3cc(OC)ccc23)[C@@H]1CO
-1.5,12.8,-4.0,i,-2.3,COc1cccc(-c2ccc3c(c2)[C@H]2[C@H](CCN2S(=O)(=O)c2cccc(OC)c2)[C@H](CO)N3)c1
0.9,-3.7,-5.2,i,-0.1,O=C(NC1CCC1)[C@H]1[C@H](CO)[C@H]2Cn3c(ccc(-c4ccccc4)c3=O)[C@@H]1N2Cc1cocn1
1.1,-1.2,-0.7,i,-0.7,C[C@H]1CN([C@@H](C)CO)C(=O)Cc2cc(NC(=O)C3CCCCC3)ccc2O[C@H]1CN(C)Cc1ccncc1
-0.1,1.1,-2.6,i,-0.3,O=C(N[C@@H]1CC[C@@H](CCn2cc(-c3ccc(F)cc3)nn2)O[C@@H]1CO)c1cnccn1
6.9&0.9,6.5&-2.6,0.2&-2.6,i,0.4&0.4&-2.0,C[C@H](CO)N1C[C@H](C)[C@H](CN(C)C(=O)NC2CCCCC2)OCc2cnnn2CCCC1=O
-3.6,-4.3,1.8,i,-2.5,CC(=O)NC[C@H]1[C@H](c2ccc(-c3cccc(F)c3)cc2)[C@@H](CO)N1C(C)=O
-1.2,-0.1,-1.9,i,-1.3,C[C@H](CO)N1C[C@H](C)[C@@H](CN(C)S(=O)(=O)c2cn(C)cn2)Oc2c(NC(=O)Nc3ccccc3)cccc2C1=O
0.4,-10.9,-0.4,i,-2.1,CNC(=O)C[C@@H]1CC[C@@H]2[C@H](COC[C@H](O)CN2Cc2ccc(C(F)(F)F)cc2)O1
3.5,7.5,-0.7,i,-4.2,C[C@H](CO)N1C[C@H](C)[C@H](CN(C)C(=O)c2ccccc2F)Oc2ncc(C#CC(C)(C)O)cc2C1=O
-4.6,-3.8,-3.7,i,-2.0,C[C@@H]1CN([C@H](C)CO)C(=O)c2cc(NC(=O)c3ccncc3)ccc2O[C@H]1CN(C)S(=O)(=O)c1ccc(Cl)cc1
-2.2,0.7,1.0,i,1.8,C[C@@H]1CN([C@@H](C)CO)C(=O)Cc2cc(NC(=O)Cc3cn(C)c4ccccc34)ccc2O[C@@H]1CN(C)C(=O)NC1CCCCC1
-2.5,2.0,-0.5,i,-16.4,O=C(NC[C@H]1[C@H](c2ccccc2)[C@H](CO)N1C(=O)C1CC1)NC1CCCC1
15.7,19.1,1.9,i,0.5,CCN(CC)C(=O)C1=C(C)N(CCCOC)C(=O)C(CC(=O)NC2CCCC2)C1 (centres undefined)
-6.9,-10.4,6.1,i,0.5,C[C@@H]1CN([C@@H](C)CO)C(=O)c2cc(C3=CCCCC3)cnc2O[C@H]1CN(C)C(=O)Nc1ccc(F)cc1
20.9,18.0,2.7,i,-5.0,Cc1c(NC(=O)CSc2nnc(-c3ccccc3F)o2)c(=O)n(-c2ccccc2)n1C
-10.3,-7.0,2.9,i,4.4,COc1ccc(CN(C)C[C@H]2Oc3c(NC(=O)c4ccc(-c5nccs5)cc4)cccc3C(=O)N([C@@H](C)CO)C[C@@H]2C)cc1
-1.1,5.0,-2.0,i,-6.1,C[C@@H]1CN([C@H](C)CO)C(=O)c2cc(C3=CCCCC3)cnc2O[C@@H]1CN(C)Cc1ccccn1
-0.1,-4.9,-2.0,i,-6.2,C[C@@H]1CN([C@@H](C)CO)C(=O)c2cccc(NC(=O)C3CC3)c2O[C@@H]1CN(C)S(=O)(=O)c1ccccc1
-2.3,-2.2,0.3,i,2.4,CO[C@H]1CN(C)C(=O)c2cc(NC(C)=O)ccc2OC[C@@H](C)N(C(=O)C2CCCCC2)C[C@H]1C
1.0,8.2,-3.6,i,-2.4,C/C=C/c1cnc2c(c1)C(=O)N([C@H](C)CO)C[C@@H](C)[C@H](CN(C)C(=O)Nc1ccccc1F)O2
-22.8,-37.0,6.2,i,1.1,CC(C)c1cccc(-c2csc(C(O)c3cccc(Cl)c3)n2)c1 (centres undefined)
-1.8,-1.6,0.0,i,-1.5,CC(C)OC(=O)N(C)C[C@@H]1OCc2ccccc2-c2c(n(C)c3ccccc23)C(=O)N([C@@H](C)CO)C[C@@H]1C

In the list so far, these have a thiophene ring, fused or not.
Ecoli rRNA inh,Ecoli rRNA inh OD600,Ecoli rRNA inh RFP,FGF22 binding,AF4-AF9 inh,mol
4.9,15.2,1.0,i,-0.2,CCc1nc(NCc2cccs2)c2nnn(Cc3ccccc3)c2n1
-3.9,-6.4,5.2,i,-1.8,O=C(Nc1ccccc1)c1cc(C2CCCN(C(=O)c3cccs3)C2)on1 (centres undefined)

High-throughput results as filed in PubChem BioAssay.
